Source: PubChem BioAssay
T cruzi inh: blocks replication of Trypanosoma cruzi; T. cruzi beta-gal in NIH3T3, luminescence, 90 h; inhibition, % (test concentration not listed); 1.4% of 300,000 active; AID 1885;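 active means mean inhibition across valid replicates above about 55%, limit read from the data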;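 further: signal also drops with host cell toxicity which is not excluded here; 0% = plate median of DMSO wells and 100% = zero luminescence signal; higher percent means less beta-gal luminescence so fewer parasites; stock transfer was 50 nL into about 50 µL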
AF4-AF9 inh: MLL-AF4/AF9 protein interaction inhibition; P42568; AlphaScreen, biotin-AF4 peptide binding to FLAG-AF9; inhibition, % at 10 µM; 0.47% of 350,000 active;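 active means every replicate reaching a set inhibition limit, whatever the replicate mean, cut at about 25% in these data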;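 further: 0% = plate neutral control median and 100% = total signal loss; the record names both 10 and 1 µM as test concentration; the first replicate is given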
Target sequence (P42568 whole entry, looked up): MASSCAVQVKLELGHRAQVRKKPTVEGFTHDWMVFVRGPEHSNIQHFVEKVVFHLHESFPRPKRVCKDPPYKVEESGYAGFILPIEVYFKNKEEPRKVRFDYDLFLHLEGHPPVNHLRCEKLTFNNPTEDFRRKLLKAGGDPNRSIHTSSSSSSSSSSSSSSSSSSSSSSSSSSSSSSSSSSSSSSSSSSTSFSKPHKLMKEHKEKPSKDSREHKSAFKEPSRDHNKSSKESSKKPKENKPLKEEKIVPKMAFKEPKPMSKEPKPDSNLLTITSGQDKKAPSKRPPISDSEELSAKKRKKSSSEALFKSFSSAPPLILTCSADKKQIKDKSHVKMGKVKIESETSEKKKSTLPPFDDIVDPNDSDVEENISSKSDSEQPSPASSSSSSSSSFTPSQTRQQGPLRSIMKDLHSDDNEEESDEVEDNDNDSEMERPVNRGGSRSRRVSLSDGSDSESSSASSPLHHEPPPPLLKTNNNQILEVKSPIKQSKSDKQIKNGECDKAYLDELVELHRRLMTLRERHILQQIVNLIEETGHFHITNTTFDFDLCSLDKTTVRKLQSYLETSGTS
A1 inh: inhibitors of the anti-apoptotic protein A1, read as caspase activation | 0.066% of 330,000 active | MEF A1-2A-BIM cells, Caspase-Glo 3/7 luminescence, 3 h; percent of clofoctol response, vehicle zero | caspase activation, % (test concentration not listed);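 active means over half of replicate activation scores above 10%, or exactly half above 10 with the replicate mean above 10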;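 further: wells of about 30 µL received 50 nL stock; many hits fall short of the cut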
Ecoli rRNA inh: inhibits bacterial ribosomal RNA function over humanized ribosomes | AID 720706 | GFP signal change (wild-type ribosome), % (no concentration beside the values) | 1.6% of 350,000 active | E. coli WT GFP vs humanized-ribosome RFP mutants, fluorescence, 24 h; active compounds read low; DMSO median 0, no signal -100;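 active means significant combined selectivity score with lowered wild-type GFP, culture density cut under 30%, mutant RFP and density less affected; inactive means any of these conditions unmet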; further: one replicate is shown; some compounds called inactive have numbers as strong as hits
FGF22 binding: FGF22 (human) thermal shift binding | 1.5% of 340,000 active | recombinant FGF22 thermal shift, SYPRO orange fluorescence; percent of sucrose octasulfate shift, DMSO zero | AID 651658 | calls only at 9.99 µM;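 active means melting point raised past a set limit in the mean and every replicate; three in four hits are not shown here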
Target sequence (Q9HCT0 whole entry, looked up): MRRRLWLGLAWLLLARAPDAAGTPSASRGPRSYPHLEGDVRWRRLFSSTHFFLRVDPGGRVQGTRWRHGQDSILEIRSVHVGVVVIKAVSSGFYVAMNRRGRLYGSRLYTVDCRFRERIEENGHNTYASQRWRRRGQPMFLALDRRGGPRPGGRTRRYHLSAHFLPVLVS
UCH37 inh: inhibitors of human deubiquitinating enzyme UCH37; Q9Y5K5; purified proteasome/UCH37, Ub-AMC cleavage fluorescence; inhibition, % (concentration not given with the values); 0.33% of 330,000 active;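 active means mean of two replicates above 20%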;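 further: 0% = compound-free wells with enzyme and 100% = wells lacking proteasome; stock transfer was 100 nL into about 20 µL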
Target sequence (Q9Y5K5 whole entry, looked up): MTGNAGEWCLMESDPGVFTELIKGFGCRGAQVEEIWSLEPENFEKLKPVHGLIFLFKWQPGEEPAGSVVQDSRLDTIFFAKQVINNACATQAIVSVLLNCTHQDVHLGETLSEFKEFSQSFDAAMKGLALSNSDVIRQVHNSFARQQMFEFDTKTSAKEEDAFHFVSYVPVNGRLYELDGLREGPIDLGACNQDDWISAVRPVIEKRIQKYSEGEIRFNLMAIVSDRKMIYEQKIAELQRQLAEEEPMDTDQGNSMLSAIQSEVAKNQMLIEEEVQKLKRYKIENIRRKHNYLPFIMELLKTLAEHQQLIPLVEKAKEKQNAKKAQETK
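Signal – fluorescence, ex 355 nm, em 460 nm · System – Proteasome-bound UCH37 · Input – 0.15 nM proteasome as dispensed · Timing – 30 min preincubation with enzyme, 25 min cleavage at room temperature · Read-out basis – percent inhibition of cleavage signal versus uninhibited and no-proteasome wells · Medium – Tris-HCl pH 7.4 with ATP-MgCl2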
Ecoli growth: inhibitors of Escherichia coli growth | OD600, 23 h; active compounds read low | AID 1053175 | 0.21% of 330,000 active | OD600 absorbance (no concentration beside the values);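 active means OD600 absorbance below the run mean of sample wells minus 3.6 SD, in any replicate, cut at about 0.56 in these data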;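 further: stock transfer was 300 nL into about 60 µL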
Beta apoptosis: blocks beta cell apoptosis | INS-1E cytokine-induced death, ATP luminescence, 48 h; percent of positive-control rescue, neutral wells zero | protection from apoptosis, % (no concentration beside the values) | 0.8% of 300,000 active | AID 435005;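 active means all replicates at 75% or more, or half of them and the mean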;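 further: 0% = cytokine-treated negative control wells and 100% = positive control rescue; higher means more ATP so stronger rescue from cytokine killing; wells of about 40 µL received 100 nL stock; the first replicate is given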
Ecoli rRNA inh OD600: also measured in Ecoli rRNA inh; calls as there; OD600 change, %; measured here: OD600 growth;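 optical density of the mix in the first replicate; 0 = DMSO median and -100 = no signal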
Ecoli rRNA inh RFP: further read-out of Ecoli rRNA inh, marked with its call; RFP signal change, %; measured here: RFP humanized mutant strains;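 first replicate; 0 = DMSO median and -100 = no signal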
Active calls of the source: *. These rows are one share of the data. The share of hits here may be higher or lower than overall.

How did CCCCn1c(N)c(N(CC(C)C)C(=O)Cc2ccc(S(=O)(=O)N3CCOCC3)s2)c(=O)[nH]c1=O do in these assays?
AF4-AF9 inh: -2.6; Ecoli rRNA inh: 22; FGF22 binding: inactive; UCH37 inh: -1.5; Ecoli growth: 0.71; Ecoli rRNA inh OD600: 13; Ecoli rRNA inh RFP: -1.2

How did CCCn1c(N)c(C(c2ccc(C(=O)OC)cc2)N2CCN(c3ccccc3)CC2)c(=O)[nH]c1=O (centres undefined) do in these assays?
T cruzi inh: -4; A1 inh: 0.8; UCH37 inh: 6.2; Ecoli growth: 0.7; Beta apoptosis: -2

Results for CCCCn1c(N)c(N(CC(C)C)C(=O)c2oc3c(Cl)cccc3c2C)c(=O)[nH]c1=O ?
T cruzi inh: 53; AF4-AF9 inh: -0.7; A1 inh: 0.8; Ecoli rRNA inh: 1; FGF22 binding: inactive; UCH37 inh: 0.8; Ecoli growth: 0.7; Beta apoptosis: -5; Ecoli rRNA inh OD600: 5; Ecoli rRNA inh RFP: 0.4

How did Cc1ccc(CN2CCN(/N=C/c3cccn3C)CC2)c(C)c1 do in these assays?
T cruzi inh: 6; AF4-AF9 inh: 5.4; A1 inh: -0.2; Ecoli rRNA inh: 12; FGF22 binding: inactive; Beta apoptosis: -2; Ecoli rRNA inh OD600: 5; Ecoli rRNA inh RFP: -2.9

Results for Cc1ccc(S(=O)(=O)NC2(C(F)(F)F)NC(=O)N(CCc3ccccc3)C2=O)cc1 (centres undefined) ?
T cruzi inh: -11; AF4-AF9 inh: -0.8; A1 inh: 1.6; Ecoli rRNA inh: -17; FGF22 binding: inactive; UCH37 inh: -1.4; Ecoli growth: 0.69; Beta apoptosis: -3; Ecoli rRNA inh OD600: -9; Ecoli rRNA inh RFP: -0.8

Results for CC(C)C(NC(=O)c1ccccc1F)C(=O)OCC(=O)c1ccc(F)cc1 (centres undefined) ?
T cruzi inh: -11; AF4-AF9 inh: -2.4; A1 inh: -0.7; Ecoli rRNA inh: -11; FGF22 binding: inactive; UCH37 inh: 3.9; Ecoli growth: 0.68; Beta apoptosis: -2; Ecoli rRNA inh OD600: -5; Ecoli rRNA inh RFP: -2.1

Results for O=C(Nc1ccc(NC(=O)c2cccs2)c(Cl)c1)c1cccs1 ?
T cruzi inh: 2; AF4-AF9 inh: 0.6; A1 inh: 1.7; Ecoli rRNA inh: -36; FGF22 binding: inactive; UCH37 inh: 5.9; Ecoli growth: 0.62; Beta apoptosis: 1; Ecoli rRNA inh OD600: -48; Ecoli rRNA inh RFP: -14

What do the screens show for `Cc1ccc(NC(=O)c2ccc(OCc3c(C)noc3C)cc2)nc1`?
AF4-AF9 inh: 5.0; A1 inh: 1.6; Ecoli rRNA inh: 5; FGF22 binding: inactive; UCH37 inh: 3.9; Ecoli growth: 0.67; Beta apoptosis: -1; Ecoli rRNA inh OD600: 17; Ecoli rRNA inh RFP: -0.4

What do the screens show for `COc1ccc(C(=O)C2CCCN(C(=O)c3cc(C4CC4)[nH]n3)C2)c(C)c1` (centres undefined)?
T cruzi inh: 2; AF4-AF9 inh: 1.8; A1 inh: 0.1; Ecoli rRNA inh: -3; FGF22 binding: inactive; UCH37 inh: 0.6; Ecoli growth: 0.71; Beta apoptosis: 3; Ecoli rRNA inh OD600: -11; Ecoli rRNA inh RFP: -0.5

What do the screens show for `CCOc1ccc(C(=O)NCCCN2CCCC2=O)cc1`?
T cruzi inh: -3; A1 inh: 0.1; UCH37 inh: 3.1; Ecoli growth: 0.71; Beta apoptosis: -11

What do the screens show for `O=C(O)CN1C(=O)CC(c2ccccc2)CC1=O`?
T cruzi inh: -20; AF4-AF9 inh: 4.6; A1 inh: -0.3; Ecoli rRNA inh: 5; FGF22 binding: inactive; UCH37 inh: 4.8; Ecoli growth: 0.64; Beta apoptosis: 3; Ecoli rRNA inh OD600: 5; Ecoli rRNA inh RFP: -1.2

How did COc1cccc(N2CCN(Cc3ncc(-c4ccccc4)o3)CC2)c1 do in these assays?
T cruzi inh: -3; AF4-AF9 inh: 3.8; A1 inh: -0.2; Ecoli rRNA inh: -10; FGF22 binding: inactive; UCH37 inh: 2.6; Ecoli growth: 0.7; Beta apoptosis: -3; Ecoli rRNA inh OD600: -15; Ecoli rRNA inh RFP: 1.3

How did CN(Cc1nc2ccccc2n1C)c1ccccc1 do in these assays?
T cruzi inh: -3; AF4-AF9 inh: 2.4; A1 inh: 0.4; Ecoli rRNA inh: -2; FGF22 binding: inactive; UCH37 inh: 4.3; Ecoli growth: 0.57; Beta apoptosis: -3; Ecoli rRNA inh OD600: 6; Ecoli rRNA inh RFP: -0.1

What do the screens show for `O=C1C2CC=CCC2C(=O)N1c1ccc(NCCc2ccccc2)c([N+](=O)[O-])c1` (centres undefined)?
T cruzi inh: 20; A1 inh: 0.1; UCH37 inh: 5.3; Ecoli growth: 0.72; Beta apoptosis: -11

Results for O=C(COC(=O)CC1CCCC1)Nc1ccc(Br)cc1F ?
AF4-AF9 inh: -1.9; A1 inh: 0.1; Ecoli rRNA inh: -64; FGF22 binding: inactive; UCH37 inh: 0.3; Ecoli growth: 0.67; Beta apoptosis: 2; Ecoli rRNA inh OD600: -80; Ecoli rRNA inh RFP: -19

Results for COC(=O)CCC(=O)NNC(=O)c1cccc(Cl)c1 ?
T cruzi inh: 9; A1 inh: -1.1; UCH37 inh: 2.5; Ecoli growth: 0.7; Beta apoptosis: -8

Results for O=c1c(-c2ccc(Cl)cc2)cnc2n1CCS2 ?
T cruzi inh: 2; AF4-AF9 inh: 0.9; A1 inh: -0.5; Ecoli rRNA inh: -19; FGF22 binding: inactive; UCH37 inh: 1.8; Ecoli growth: 0.7; Beta apoptosis: -2; Ecoli rRNA inh OD600: -19; Ecoli rRNA inh RFP: 0.0

How did CCCCCOc1ccc(OC(=O)c2ccncc2)cc1 do in these assays?
T cruzi inh: 31; A1 inh: -1.2; UCH37 inh: 5.6; Ecoli growth: 0.68; Beta apoptosis: 11

Results for CC(NCC(O)COc1ccccc1)C1COc2ccccc2O1 (centres undefined) ?
T cruzi inh: -27; AF4-AF9 inh: 2.7; A1 inh: -0.3; Ecoli rRNA inh: 6; FGF22 binding: inactive; UCH37 inh: 4.5; Ecoli growth: 0.64; Beta apoptosis: -2; Ecoli rRNA inh OD600: 0; Ecoli rRNA inh RFP: 1.4

Results for O=S(=O)(NCCc1ccncc1)c1ccc(S(=O)(=O)N2CCCCCC2)cc1 ?
T cruzi inh: 26; A1 inh: 0.5; UCH37 inh: 1.3; Ecoli growth: 0.71; Beta apoptosis: 6

Pulled by compound from the list above, three records:
What do the screens show for `CCOc1ccc(C(=O)NCCCN2CCCC2=O)cc1`?
T cruzi inh: -3; A1 inh: 0.1; UCH37 inh: 3.1; Ecoli growth: 0.71; Beta apoptosis: -11

What do the screens show for `COc1ccc(C(=O)C2CCCN(C(=O)c3cc(C4CC4)[nH]n3)C2)c(C)c1` (centres undefined)?
T cruzi inh: 2; AF4-AF9 inh: 1.8; A1 inh: 0.1; Ecoli rRNA inh: -3; FGF22 binding: inactive; UCH37 inh: 0.6; Ecoli growth: 0.71; Beta apoptosis: 3; Ecoli rRNA inh OD600: -11; Ecoli rRNA inh RFP: -0.5

Results for O=S(=O)(NCCc1ccncc1)c1ccc(S(=O)(=O)N2CCCCCC2)cc1 ?
T cruzi inh: 26; A1 inh: 0.5; UCH37 inh: 1.3; Ecoli growth: 0.71; Beta apoptosis: 6

Continued:
Results for O=S(=O)(c1ccc(NCCCO)nc1)N1CCOCC1 ?
AF4-AF9 inh: -0.8; Ecoli rRNA inh: 0; FGF22 binding: inactive; UCH37 inh: -0.4; Ecoli growth: 0.66; Ecoli rRNA inh OD600: -3; Ecoli rRNA inh RFP: -1.8

How did COc1ccccc1NC(=O)CSc1nnc(CSc2nc(C)cc(C)n2)o1 do in these assays?
T cruzi inh: -15; AF4-AF9 inh: -5.5; A1 inh: 2.7; Ecoli rRNA inh: 4; FGF22 binding: inactive; UCH37 inh: 3.6; Ecoli growth: 0.7; Beta apoptosis: -1; Ecoli rRNA inh OD600: 0; Ecoli rRNA inh RFP: -0.4

Results for COC(=O)c1sc2nc3c(cc2c1N)COC(C)(C)C3 ?
T cruzi inh: 8; A1 inh: 1.0; UCH37 inh: -21; Ecoli growth: 0.68; Beta apoptosis: -5

Results for COc1ccc(NC(=O)c2ccsc2NC(C)=O)cc1 ?
T cruzi inh: -13; AF4-AF9 inh: 0.6; A1 inh: -0.5; Ecoli rRNA inh: -16; FGF22 binding: inactive; UCH37 inh: 2.1; Ecoli growth: 0.7; Beta apoptosis: 8; Ecoli rRNA inh OD600: -29; Ecoli rRNA inh RFP: 7.4

How did CN(Cc1ccc(-n2cccn2)cc1)Cc1cn(C)nc1-c1ccccc1F do in these assays?
T cruzi inh: 15; AF4-AF9 inh: 2.4; A1 inh: -0.3; Ecoli rRNA inh: 0; FGF22 binding: inactive; UCH37 inh: 3.5; Ecoli growth: 0.64; Beta apoptosis: 6; Ecoli rRNA inh OD600: -1; Ecoli rRNA inh RFP: 0.9

How did COc1cc(NC(=O)CSc2nc(C)cc(C)n2)cc(OC)c1OC do in these assays?
T cruzi inh: -16; AF4-AF9 inh: -1.8; A1 inh: -0.2; Ecoli rRNA inh: -13; FGF22 binding: inactive; UCH37 inh: 1.5; Ecoli growth: 0.68; Beta apoptosis: -14; Ecoli rRNA inh OD600: -12; Ecoli rRNA inh RFP: 0.5

What do the screens show for `Cc1ccc(NCc2ccco2)cc1C`?
AF4-AF9 inh: -0.6; A1 inh: -1.9; Ecoli rRNA inh: 5; FGF22 binding: inactive; UCH37 inh: 4.4; Ecoli growth: 0.69; Beta apoptosis: -5; Ecoli rRNA inh OD600: 7; Ecoli rRNA inh RFP: 5.7

What do the screens show for `COc1ccccc1NC(=O)C1CC(=O)N(c2ccc(F)cc2)C1` (centres undefined)?
T cruzi inh: -13; A1 inh: 0.6; UCH37 inh: 1.3; Ecoli growth: 0.65; Beta apoptosis: -1

What do the screens show for `O=C1CN(C(=O)c2ccccc2F)C(c2ccccc2)c2cc(F)ccc2N1` (centres undefined)?
T cruzi inh: 7; AF4-AF9 inh: 1.7; A1 inh: 0.8; Ecoli rRNA inh: -15; FGF22 binding: inactive; UCH37 inh: 3.3; Ecoli growth: 0.67; Beta apoptosis: 2; Ecoli rRNA inh OD600: -8; Ecoli rRNA inh RFP: -12

How did CCS(=O)(=O)N1CCC(C(=O)NCCN2CCOCC2)CC1 do in these assays?
T cruzi inh: 0; A1 inh: -1.3; UCH37 inh: 1.4; Ecoli growth: 0.69; Beta apoptosis: 4

Results for O=C(NCC(c1ccco1)N1CCN(c2ccccc2)CC1)c1ccco1 (centres undefined) ?
T cruzi inh: 7; A1 inh: 0.7; UCH37 inh: 2.9; Ecoli growth: 0.7; Beta apoptosis: -3

Results for Cc1ccc(C2=NC(C)(C)N=C2SCC(=O)Nc2ccc(Cl)cc2)cc1 ?
T cruzi inh: -24; A1 inh: 0.5; UCH37 inh: 2.7; Ecoli growth: 0.65; Beta apoptosis: 2
